From PubChem BioAssay
Vaccinia stage: Vaccinia orthopox stage-specific inhibition; 89,000 tested, 0.01% active; AID 1053133; Vaccinia-infected cells, mCherry/Venus stage reporter fluorescence; stronger effect = lower value; some inactives read as strong as hits; activity change (mCherry), % (concentration not given with the values);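 active means mCherry past -33% and 40 or more points under the early reporter, replicates agreeing; inconclusive means past -33% without that gap or agreement; tested in A549 cells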;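 further: scaled between vehicle wells and reference inhibitor wells; 23 nL library stock went into each well; one replicate is shown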
Vaccinia stage Venus: recorded beside Vaccinia stage, whose call it bears; activity change (Venus), %; measured here: Venus reporter, other viral stage;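 negative = less Venus signal; first of two replicates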
* hit, by the source's call; ? = inconclusive; · = no result given. Only part of the results is shown. The share of hits here may be higher or lower than overall.

Below each SMILES – Vaccinia stage, Vaccinia stage Venus
- C[C@@H](NC(=O)C[C@@H]1C=C[C@H](NC(=O)C2CC2)[C@@H](CO)O1)c1ccccc1
  -1, 3
- C[C@H]1CN([C@@H](C)CO)C(=O)c2cccc(NS(=O)(=O)c3cccs3)c2O[C@@H]1CN(C)C(=O)Nc1ccc(C(F)(F)F)cc1
  2, 2
- CCCNC(=O)C[C@@H]1CC[C@H]2[C@H](COc3ccc(NC(=O)c4cccc(F)c4)cc3C(=O)N2C)O1
  -5, 6
- O=C(C1CCCC1)N1CC2(C1)[C@H](c1ccccc1)[C@@H](CO)N2CCC(F)(F)F
  16, 10
- CCC(=O)Nc1ccc2c(c1)OC[C@@H](C)N(Cc1cc(-c3ccccc3)on1)C[C@@H](C)[C@H](OC)CN(C)C2=O
  -14, -8
- CCCNC(=O)N1[C@@H](CO)[C@@H]2c3ccccc3N(C(=O)Nc3cccc(Cl)c3)C[C@@H]21
  29, 17
- COc1ccc(CN(C)C[C@H]2Oc3ccc(NC(=O)Nc4ccc(F)cc4)cc3C(=O)N([C@H](C)CO)C[C@@H]2C)cc1
  -6, -6
- C[C@H]1CN([C@@H](C)CO)C(=O)c2cc(NC(=O)Nc3ccc4c(c3)OCO4)ccc2O[C@@H]1CN(C)C(=O)NC1CCCCC1
  -5, 15
- COc1ccc2c3c([nH]c2c1)[C@@H](CO)N(S(C)(=O)=O)CC31CCN(C(=O)c2cccnc2)CC1
  11, 6
- C[C@@H]1CN([C@@H](C)CO)C(=O)Cc2cc(NC(=O)Nc3ccccc3)ccc2O[C@H]1CN(C)Cc1ccncc1
  -2, -6
- CCCN1C[C@@H](C)[C@H](OC)CN(C)C(=O)c2cc(NC(=O)NC3CCCCC3)ccc2OC[C@@H]1C
  -6, -3
- CO[C@H]1CN(C)C(=O)c2ccc(NS(=O)(=O)c3cccc(F)c3)cc2OC[C@@H](C)N(C(=O)Cc2cccnc2)C[C@@H]1C
  20, 11
- Cc1noc(C)c1NC(=O)Nc1ccc2c(c1)C(=O)N([C@@H](C)CO)C[C@@H](C)[C@@H](CN(C)Cc1ccccc1)OCCCC[C@H](C)O2
  27, 0
- C/C=C/c1ccc2c(c1)O[C@@H](CN(C)C(=O)NC1CCCCC1)[C@H](C)CN([C@@H](C)CO)S2(=O)=O
  15, 6
- CO[C@@H]1CN(C)C(=O)c2ccc(NS(=O)(=O)c3ccc(C)cc3)cc2OC[C@@H](C)NC[C@@H]1C
  -1, -2
- COCC#Cc1cnc2c(c1)C(=O)N([C@@H](C)CO)C[C@H](C)[C@H](CN(C)C(=O)Nc1ccccc1F)O2
  15, -3
- COCC(=O)N1CCCCN2[C@H](CO)[C@H](c3ccc(-c4ccc(F)cc4)cc3)[C@H]2C1
  -5, -3
- C[C@H]1CN([C@@H](C)CO)C(=O)c2cccc(NC(=O)C3CCOCC3)c2O[C@@H]1CN(C)CC1CC1
  22, 19
- CCCN1C[C@H](C)[C@H](OC)CN(C)C(=O)c2cc(NC(=O)c3ccccc3)ccc2OC[C@@H]1C
  10, 4
- CCC(=O)N[C@@H]1C=C[C@H](CC(=O)OC)O[C@H]1CO
  3, 6
- CCNC(=O)C[C@@H]1C=C[C@@H](NS(=O)(=O)c2ccc(C)cc2)[C@@H](CO)O1
  13, 11
- O=C(C[C@@H]1C=C[C@@H](NC(=O)Nc2ccc(F)cc2)[C@H](CO)O1)NCc1ccccn1
  4, -5
- CCCNC(=O)N[C@H]1CC[C@H](CCn2cc(C3CCCC3)nn2)O[C@@H]1CO
  2, 3
- CCc1cnc(N2[C@@H](C#N)[C@H](c3ccccc3)[C@@H]2CO)s1
  5, 12
- COc1ccc(CN(C)C[C@@H]2Oc3c(NS(=O)(=O)c4cn(C)cn4)cccc3C(=O)N([C@H](C)CO)C[C@H]2C)cc1
  10, 6
- O=C(Nc1ccc(F)cc1)N[C@H]1CC[C@@H](CCn2cc(C3(O)CCCC3)nn2)O[C@@H]1CO
  -1, 1
- CC(C)NC[C@@H]1[C@H](c2ccc(C3=CCCCC3)cc2)[C@H](CO)N1C(=O)NC(C)C
  ?, ·
- COc1ccc(S(=O)(=O)Nc2ccc3c(c2)C(=O)N([C@H](C)CO)C[C@H](C)[C@H](CN(C)C(=O)Nc2c(C)noc2C)OCCCC[C@@H](C)O3)cc1
  15, 20
- O=C(C[C@@H]1C=C[C@@H](NC(=O)C2CCOCC2)[C@H](CO)O1)NCC1CCCCC1
  20, 13
- C[C@H](O)C#Cc1ccc2c(c1)O[C@H](CN(C)C)[C@@H](C)CN([C@@H](C)CO)S2(=O)=O
  24, 7

The list goes on, starting with the last 2 of the part before.
Below each SMILES – Vaccinia stage, Vaccinia stage Venus
- O=C(C[C@@H]1C=C[C@@H](NC(=O)C2CCOCC2)[C@H](CO)O1)NCC1CCCCC1
  20, 13
- C[C@H](O)C#Cc1ccc2c(c1)O[C@H](CN(C)C)[C@@H](C)CN([C@@H](C)CO)S2(=O)=O
  24, 7
- COc1ccc(S(=O)(=O)N(C)C[C@@H]2OCCCC[C@@H](C)Oc3ccc(NC(=O)c4ccccc4)cc3C(=O)N([C@H](C)CO)C[C@H]2C)cc1
  ?, ·
- CN1c2ccc(-c3ccccc3F)cc2[C@H]2[C@H](CCN2S(=O)(=O)c2ccccc2)[C@@H]1CO
  -29, -25
- COCC#Cc1cnc2c(c1)C(=O)N([C@H](C)CO)C[C@H](C)[C@@H](CN(C)C)O2
  22, 11
- COCC(=O)N1CC[C@H]2[C@H](CO)Nc3ccc(C#Cc4ccc(F)cc4)cc3[C@H]21
  -15, -20
- O=C(N[C@@H]1CC[C@H](CC(=O)N2CCC(Cc3ccccc3)CC2)O[C@H]1CO)c1cnccn1
  2, 4
- Cc1noc(C)c1NC(=O)N(C)C[C@H]1Oc2c(NS(=O)(=O)c3ccc(F)cc3)cccc2C(=O)N([C@@H](C)CO)C[C@@H]1C
  25, 8
- COCC(=O)N1[C@@H](CO)[C@@H](c2ccccc2)C12CN(C(=O)c1ccccc1)C2
  -1, -4
- COc1ccc(NC(=O)N[C@H]2CC[C@@H](CCn3cc(-c4ccccc4F)nn3)O[C@H]2CO)cc1
  7, 10
- CN(C)CC#Cc1ccc([C@H]2[C@@H](CO)N3C(=O)CN(C(=O)c4ccccc4)C[C@H]23)cc1
  7, 7
- O=C(C[C@H]1CC[C@@H](NC(=O)c2ccccc2)[C@@H](CO)O1)Nc1ccc(-c2ccccc2)cc1
  ?, ·
- COc1ccc(CN(C)C[C@H]2OCCCC[C@H](C)Oc3ccc(NC(=O)C4CCCCC4)cc3C(=O)N([C@H](C)CO)C[C@H]2C)cc1
  ?, ·
- COCC#Cc1ccc2c(c1)O[C@H](CN(C)C(=O)CN(C)C)[C@@H](C)CN([C@@H](C)CO)S2(=O)=O
  14, 4
- COCC(=O)Nc1ccc2c(c1)C(=O)N(C)[C@@H]1CC[C@@H](CC(=O)NCCc3ccncc3)O[C@H]1CO2
  1, 2
- Cc1ccccc1S(=O)(=O)N1CC(=O)N2[C@H](CO)[C@@H](c3ccc(C#CC4CC4)cc3)[C@@H]2C1
  21, 5
- C[C@@H]1CN([C@@H](C)CO)C(=O)c2cccc(NS(=O)(=O)c3ccccc3)c2O[C@@H]1CN(C)Cc1ccc(-c2ccccc2)cc1
  -33, -31
- CC(=O)N1[C@@H]2c3ccc(-c4ccccc4)c(=O)n3C[C@@H]2[C@@H](CO)[C@@H]1C(=O)N1CCCCC1
  10, 3
- C[C@@H]1CN([C@H](C)CO)C(=O)Cc2cc(NC(=O)c3ccncc3)ccc2O[C@@H]1CN(C)Cc1ccc(Cl)c(Cl)c1
  ?, ·
- CC(C)CC#Cc1ccc2c(c1)O[C@@H](CN(C)C(=O)Cc1cccnc1)[C@@H](C)CN([C@@H](C)CO)S2(=O)=O
  ?, ·
- O=C(O)C[C@@H]1C[C@@H]2c3cc(NC(=O)CC4CC4)ccc3O[C@@H]2[C@H](CO)O1
  6, 5
- C[C@H]1CN([C@@H](C)CO)C(=O)c2cc(NC(=O)Nc3ccc(F)cc3)ccc2O[C@@H]1CN(C)C(=O)Nc1ccc(F)cc1
  0, -3
- CCN1[C@@H]2Cn3c(ccc(-c4ccc(F)cc4)c3=O)[C@H]1[C@@H](C(=O)Nc1ccccc1)[C@@H]2CO
  2, -4
- C[C@@H]1CN([C@@H](C)CO)C(=O)c2cc(NC(=O)CCC(F)(F)F)ccc2O[C@@H](C)CCCCO[C@@H]1CN(C)C(=O)NC1CCCCC1
  8, 0
- C[C@H]1CN([C@@H](C)CO)C(=O)Cc2cc(NC(=O)Cc3ccccc3)ccc2O[C@@H]1CN(C)Cc1ccc(C(=O)O)cc1
  7, -5
- CN1C(=O)c2cc(NC(=O)c3ccc(F)c(F)c3)ccc2OC[C@H]2O[C@H](CC(=O)N[C@@H]3CCN(Cc4ccccc4)C3)CC[C@@H]21
  -24, -17
- CCCNC(=O)Nc1ccc2c(c1)C(=O)N(C)C[C@H](OC)[C@H](C)CN(C(=O)C1CCOCC1)[C@@H](C)CO2
  9, 3
- CO[C@@H]1CN(C)C(=O)c2ccc(NC(=O)Cc3ccccc3)cc2OC[C@H](C)NC[C@H]1C
  2, 9
- O=S(=O)(NC[C@@H]1[C@@H](c2ccccc2)[C@H](CO)N1CC1CC1)c1ccccc1
  -4, 3
- N#C[C@@H]1[C@H](c2ccc(C#CC3CCCC3)cc2)[C@H](CO)N1C(=O)c1cccc(F)c1
  -27, -13
- C[C@H](CO)N1C[C@H](C)[C@H](CN(C)Cc2ccc(C(=O)Nc3ccccc3N)cc2)Oc2ccc(NS(=O)(=O)c3cccs3)cc2CC1=O
  19, 13
- O=C(C[C@H]1CC[C@@H]2[C@H](COC[C@@H](O)CN2Cc2nccs2)O1)NCc1ccc(Cl)cc1
  -15, -12

Part of the list above in order of length of the SMILES, falling.
Below each SMILES – Vaccinia stage, Vaccinia stage Venus
- CCCNC(=O)Nc1ccc2c(c1)C(=O)N(C)C[C@H](OC)[C@H](C)CN(C(=O)C1CCOCC1)[C@@H](C)CO2
  9, 3
- CCN1[C@@H]2Cn3c(ccc(-c4ccc(F)cc4)c3=O)[C@H]1[C@@H](C(=O)Nc1ccccc1)[C@@H]2CO
  2, -4
- N#C[C@@H]1[C@H](c2ccc(C#CC3CCCC3)cc2)[C@H](CO)N1C(=O)c1cccc(F)c1
  -27, -13

Other entries:
Below each SMILES – Vaccinia stage, Vaccinia stage Venus
- C[C@@H]1CN([C@@H](C)CO)C(=O)c2cc(NS(=O)(=O)c3ccc(F)cc3)ccc2O[C@@H](C)CCCCO[C@@H]1CN(C)C(=O)CCCN(C)C
  8, 7
- C[C@H]1CN([C@@H](C)CO)C(=O)c2cc(C#CCN(C)C)cnc2O[C@H]1CN(C)C
  21, 16
- COc1ccc(NC(=O)N(C)C[C@@H]2Oc3ccc(NS(=O)(=O)c4c(C)noc4C)cc3CC(=O)N([C@@H](C)CO)C[C@@H]2C)cc1
  -7, -16
- COc1ccccc1/C=C/C=O
  19, 8
- O=C(C[C@@H]1CC[C@H](NC(=O)c2ccc(F)cc2)[C@@H](CO)O1)NCc1ccncn1
  22, 16
- CCS(=O)(=O)N1CC(=O)N2[C@H](CO)[C@@H](c3ccc(C#CCC4CCCC4)cc3)[C@H]2C1
  -11, -7
- CCCNC(=O)Nc1ccc2c(c1)C(=O)N(C)C[C@H](OC)[C@H](C)CN(C(=O)C1CCCCC1)[C@@H](C)CO2
  6, 5
- O=C(C[C@H]1CC[C@H](NC(=O)c2ccccc2)[C@@H](CO)O1)Nc1ccc(-c2ccccc2)cc1
  -22, -13
- CC(C)NC(=O)N(C)C[C@H]1OCCCC[C@H](C)Oc2ccc(NC(=O)CCCN(C)C)cc2C(=O)N([C@@H](C)CO)C[C@H]1C
  24, 6
- COc1ccc(NC(=O)N(C)C[C@@H]2OCCCC[C@H](C)Oc3ccc(NC(=O)Nc4c(C)noc4C)cc3C(=O)N([C@@H](C)CO)C[C@@H]2C)cc1
  11, 9
- COc1ccc2c3c([nH]c2c1)[C@H](CO)NCC31CCN(C(=O)C2CCC2)CC1
  19, 16
- C[C@@H]1CN([C@@H](C)CO)C(=O)c2cc(-c3cccnc3)cnc2O[C@H]1CN(C)C(=O)NC1CCCC1
  15, 0
- N#C[C@@H]1[C@H](c2ccccc2-c2cccc(F)c2)[C@H](CO)N1C(=O)C1CCC1
  15, 7
- C[C@@H]1CN([C@H](C)CO)C(=O)c2cc(NS(=O)(=O)c3ccc(Cl)cc3)ccc2O[C@@H](C)CCCCO[C@H]1CN(C)C(=O)Nc1ccc(C(F)(F)F)cc1
  -31, -16
- CCCC(=O)Nc1ccc2c(c1)C(=O)N(C)C[C@@H](OC)[C@@H](C)CN(Cc1ccccc1F)[C@@H](C)CO2
  -16, -16
- O=C(C[C@@H]1C[C@H]2c3cc(NS(=O)(=O)c4ccccc4)ccc3O[C@H]2[C@H](CO)O1)NC1CCCCC1
  5, -3
- CNC[C@@H]1Oc2ccc(NC(=O)Cc3cn(C)c4ccccc34)cc2CC(=O)N([C@@H](C)CO)C[C@@H]1C
  2, -5
- C[C@H]1CN([C@@H](C)CO)S(=O)(=O)c2ccc(-c3ccccc3F)cc2O[C@H]1CN(C)C(=O)C1CC1
  -9, -11
- C[C@H]1CN([C@@H](C)CO)C(=O)c2cc(NS(=O)(=O)c3ccc(Cl)cc3)ccc2O[C@H]1CN(C)C(=O)Nc1ccccc1
  17, 2
- C[C@H]1CN([C@@H](C)CO)C(=O)Cc2cc(NC(=O)c3ccncc3)ccc2O[C@H]1CN(C)Cc1ccc(-c2ccccc2)cc1
  ?, ·
- CN1C(=O)c2cc(NC(=O)C3CCC3)ccc2OC[C@@H]2O[C@@H](CC(=O)NCc3ccccc3F)CC[C@@H]21
  25, 7

A second format for some results above:
SMILES	Vaccinia stage	Vaccinia stage Venus
O=C(C[C@@H]1CC[C@H](NC(=O)c2ccc(F)cc2)[C@@H](CO)O1)NCc1ccncn1	22	16
O=C(C[C@@H]1C[C@H]2c3cc(NS(=O)(=O)c4ccccc4)ccc3O[C@H]2[C@H](CO)O1)NC1CCCCC1	5	-3
C[C@H]1CN([C@@H](C)CO)C(=O)c2cc(C#CCN(C)C)cnc2O[C@H]1CN(C)C	21	16
COc1ccc2c3c([nH]c2c1)[C@H](CO)NCC31CCN(C(=O)C2CCC2)CC1	19	16
